Compound activity (PubChem)
Tgondii IFNg – T. gondii growth inhibition under IFN-gamma; actives 3.8% (n = 69,000); AID 1259416; activity change, negative = inhibition, %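 (about 20 µM by stock and volumes)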; Toxoplasma gondii growth in IFN-gamma-treated host cells; stronger effect = lower value; reference of the scale not given here;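 active means below -70%; inconclusive means fit judged invalid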;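 further: host cells are HeLa cells infected with Toxoplasma gondii; parasite growth read as luciferase light; one replicate is shown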
* marks the source's active call; other numbers are inactive results; & = joins results of further samples; ! = a repeat was not active.

Results for Cc1cc(F)ccc1NC(=O)c1c(O)c2cccnc2n(Cc2ccccc2)c1=O ?
Tgondii IFNg: 1

Results for CNC(=O)[C@H]1CC2CN(C(=O)c3ccno3)CC2N1C(C)C (stereo partly drawn) ?
Tgondii IFNg: 4

What do the screens show for `CC(=O)Nc1cc([As](=O)(O)O)ccc1O`?
Tgondii IFNg: 15&32

How did COc1ccc(-n2c(Cc3ccccc3)nc3ccccc3c2=O)cc1 do in these assays?
Tgondii IFNg: -44

How did O=C(NCc1ccc(F)cc1)c1cc2cccnc2n(Cc2ccccc2F)c1=O do in these assays?
Tgondii IFNg: 46

How did COc1cccc([C@@H]2CCN(Cc3cc4ccccc4n(C)c3=O)C[C@H]2O)c1 do in these assays?
Tgondii IFNg: -11

Results for Cc1[nH]c2ccccc2c1CN(C)C ?
Tgondii IFNg: 13

Results for c1cnc2c(c1)ccc1ncccc12 ?
Tgondii IFNg: 5

Results for Cc1nccnc1N1C[C@H](c2cccc(F)c2F)[C@@H]2[C@H]1C1CCN2CC1 ?
Tgondii IFNg: -5

How did Fc1ccc(CN2CCc3nc4ccncc4cc3C2)cc1 do in these assays?
Tgondii IFNg: -37

Results for COc1ccc2c(c1)C1(CCN(C(=O)C3(c4ccccc4)CCCC3)CC1)CC2CC(=O)O (stereo not drawn) ?
Tgondii IFNg: -15

What do the screens show for `CCCCCCCCCCCCC/C=C/[C@@H](O)[C@@H](N)COP(=O)(O)OCC[N+](C)(C)C`?
Tgondii IFNg: -2

How did COc1ccccc1[C@@H]1CN(C(=O)c2cc(=O)[nH]c(=O)[nH]2)[C@@H]2C3CCN(CC3)[C@@H]21 do in these assays?
Tgondii IFNg: 6

How did Cc1nc(CN2C[C@H](Oc3ccccn3)[C@@H]3OCCC[C@@H]32)cs1 do in these assays?
Tgondii IFNg: 10

What do the screens show for `C1COC2CCNCC2(COCC2CC2)C1` (stereo not drawn)?
Tgondii IFNg: 57

How did CC(C)(C)n1nnnc1C(c1ccc(Cl)cc1)N1CC=C(c2ccc(F)cc2)CC1 (stereo not drawn) do in these assays?
Tgondii IFNg: 23

What do the screens show for `O=C(COc1cccnc1)NC1CCN(CC2(c3ccc(Cl)cc3)CCC2)CC1`?
Tgondii IFNg: -19

What do the screens show for `COc1cc(OC)c(OC)cc1C=O`?
Tgondii IFNg: 4&13

Results for CN1CCN(C(=O)[C@H]2CC3CN(c4ncccn4)CC3N2C)CC1 (stereo partly drawn) ?
Tgondii IFNg: -2

How did CCN1CCOCC2(CCC(CNc3cc(N(C)C)ncn3)O2)C1 (stereo not drawn) do in these assays?
Tgondii IFNg: -3

Results for CCCc1nc(-c2ccccn2)nc(OC(=O)N(C)C)c1Cc1c(F)cccc1Cl ?
Tgondii IFNg: -98*

Results for c1ccc(CN2CC[C@@H]3[C@@H]2CCN3c2ncccn2)nc1 ?
Tgondii IFNg: 33

How did O=C(Nc1ccc(F)cc1Cl)c1c(O)c2cccnc2n(Cc2ccccc2)c1=O do in these assays?
Tgondii IFNg: 142

How did c1ccc(N[C@@H]2CN(Cc3ccco3)C[C@H]3CCCO[C@H]32)nc1 do in these assays?
Tgondii IFNg: 333

Results for Cc1nccc([C@H]2C[C@@H]3CCN(Cc4cnn(C)c4)C[C@@H]3O2)n1 ?
Tgondii IFNg: 35

Results for c1ccc(CC(c2ccccc2)N2CCCCC2)cc1 (stereo not drawn) ?
Tgondii IFNg: 8

How did CCn1ncnc1CN1CCC2(CCCNC2)C1 (stereo not drawn) do in these assays?
Tgondii IFNg: 41

What do the screens show for `CCn1c(-n2cc(C3=CCN(Cc4ncccn4)CC3)cn2)nc2ccccc21`?
Tgondii IFNg: 37

How did c1cc(Cc2cnc[nH]2)ccn1 do in these assays?
Tgondii IFNg: -30

How did CNc1ccc2oc(C[C@H]3O[C@@]4(CC[C@H]3C)O[C@H]([C@H](C)C(=O)c3ccc[nH]3)[C@H](C)C[C@H]4C)nc2c1C(=O)O do in these assays?
Tgondii IFNg: 11

How did Cc1nnc2ccc(-c3cccc(C(F)(F)F)c3)nn12 do in these assays?
Tgondii IFNg: -80*

What do the screens show for `O=C(NCc1ccc2c(c1)OCO2)c1cc2cccnc2n(Cc2ccccc2)c1=O`?
Tgondii IFNg: 133

How did COC(=O)[C@H]1[C@H](CO)[C@H]2Cn3c(cccc3=O)[C@H]2N1CC1CC1 do in these assays?
Tgondii IFNg: -38

Results for O=C1N(c2ncccn2)c2ccccc2C12CCN(CC1CCOC1)CC2 (stereo not drawn) ?
Tgondii IFNg: 5

What do the screens show for `c1ccc(CCCN2CCC3(CCNCC3)C2)cc1`?
Tgondii IFNg: -15

What do the screens show for `CN1C2CCC1CC(OC(=O)c1cc(Cl)cc(Cl)c1)C2` (stereo not drawn)?
Tgondii IFNg: 16&-45

What do the screens show for `COc1ccc(NC(=O)c2cc3cccnc3n(Cc3ccc(Cl)cc3)c2=O)cc1`?
Tgondii IFNg: inactive

How did COc1ccc(C(=O)c2c(C)n(CCN3CCOCC3)c3ccccc23)cc1 do in these assays?
Tgondii IFNg: 5

What do the screens show for `CCO[C@@H]1CC[C@@H]2[C@H]1OCCN2Cc1cc(C)on1`?
Tgondii IFNg: -12

How did CN1CC(=O)N(c2cccnc2)CC12CCNC2 (stereo not drawn) do in these assays?
Tgondii IFNg: -19

Arranged by count of non-hydrogen atoms (lowest first): part of the list above.
What do the screens show for `CCO[C@@H]1CC[C@@H]2[C@H]1OCCN2Cc1cc(C)on1`?
Tgondii IFNg: -12

How did Cc1nnc2ccc(-c3cccc(C(F)(F)F)c3)nn12 do in these assays?
Tgondii IFNg: -80*

What do the screens show for `O=C(NCc1ccc2c(c1)OCO2)c1cc2cccnc2n(Cc2ccccc2)c1=O`?
Tgondii IFNg: 133

(list continues)
How did Cc1ccsc1C(=O)C1CCCN(Cc2cc3ccccc3o2)C1 (stereo not drawn) do in these assays?
Tgondii IFNg: 22

How did O=C(NCc1cccnc1)[C@@]12COC[C@@H]1CN(Cc1cccs1)C2 do in these assays?
Tgondii IFNg: -4

What do the screens show for `O=C1[C@H]2CN(Cc3ccoc3)C[C@H]2CN1c1cncnc1`?
Tgondii IFNg: 0

How did Cc1cccc(CN2CC[C@H]3[C@@H]2CCN3S(=O)(=O)C2CC2)n1 do in these assays?
Tgondii IFNg: -36

What do the screens show for `Cn1cc(CN2CC[C@H]3[C@@H]2CCN3C(=O)Cc2ccc(F)cc2)cn1`?
Tgondii IFNg: 0

Results for CC(C)N1CCO[C@H]2CN(Cc3ccsc3)C[C@@H]21 ?
Tgondii IFNg: 17

Results for COc1ccccc1NC(=O)c1cc2cccnc2n(Cc2ccc(F)cc2)c1=O ?
Tgondii IFNg: 54

How did CC(C)CNC(=O)c1cc2cccnc2n(Cc2ccc(F)cc2)c1=O do in these assays?
Tgondii IFNg: 31

What do the screens show for `Cc1cccc(NC(=O)c2cc3cccnc3n(Cc3ccc(F)cc3)c2=O)c1C`?
Tgondii IFNg: 121

How did CN1C(=O)C2(CCN(Cc3cc4n(n3)CCCNC4)CC2)c2ccccc21 do in these assays?
Tgondii IFNg: 5

What do the screens show for `C/C=C/c1ccc([C@H]2[C@@H](CO)N3CCCCN(C(=O)Cc4cccnc4)C[C@@H]23)cc1`?
Tgondii IFNg: 17

Results for COc1ccc2c(c1)CN(C)CC2c1ccc(Cl)c(Cl)c1 (stereo not drawn) ?
Tgondii IFNg: -30

What do the screens show for `Cc1cc(Cl)ccc1C(=O)C1CCCN(CCCn2cccn2)C1` (stereo not drawn)?
Tgondii IFNg: -3

Results for CC(=O)NC1CCSC1=O (stereo not drawn) ?
Tgondii IFNg: -78*!

What do the screens show for `CCc1cn[nH]c1C1CCNCC1`?
Tgondii IFNg: 17

What do the screens show for `CC(C)CN1CCCC2(CCN(c3ccc(C#N)cn3)C2)C1` (stereo not drawn)?
Tgondii IFNg: 10

How did Cc1ccc(N2CCC3(CC2)COCCN3C)nn1 do in these assays?
Tgondii IFNg: 68

What do the screens show for `CC(=O)N(C)c1cccc(-c2ccnc3c(C(=O)c4cccs4)cnn23)c1`?
Tgondii IFNg: 47

How did COCCNC(=O)c1cc2cccnc2n(Cc2ccc(F)cc2)c1=O do in these assays?
Tgondii IFNg: -20

What do the screens show for `O=C1CCC2(CCCN(Cc3cnc[nH]3)C2)N1` (stereo not drawn)?
Tgondii IFNg: 41

What do the screens show for `CN1CCc2cc3c(cc2C1O)OCO3` (stereo not drawn)?
Tgondii IFNg: 23

How did CO[C@H]1CCN(C(=O)c2cc(C)on2)[C@H]2CN(CC3CC3)C[C@@H]12 do in these assays?
Tgondii IFNg: 5

Results for C[N+]1(C)CCc2cc3c(cc2C1[C@@H]1OC(=O)c2c1ccc1c2OCO1)OCO3 (stereo partly drawn) ?
Tgondii IFNg: -37&7

How did COCCO[C@@H]1C[C@@H]2CN(C(=O)Cc3ccccn3)CCN2C1 do in these assays?
Tgondii IFNg: -3

What do the screens show for `O=C(NCc1ccccn1)c1cc2cccnc2n(Cc2ccccc2)c1=O`?
Tgondii IFNg: 19

What do the screens show for `Cc1noc(C)c1CN1CCO[C@H]2CN(C(=O)C(C)C)C[C@@H]21`?
Tgondii IFNg: -38

How did O=C(Nc1ccccc1C(F)(F)F)c1cc2cccnc2n(Cc2ccc(Cl)cc2)c1=O do in these assays?
Tgondii IFNg: 38

Results for CN(C)CCN1C[C@H](OCc2ccccn2)[C@@H]2COC[C@@H]21 ?
Tgondii IFNg: -40

What do the screens show for `CC[C@H]1CN2CCC1C[C@@H]2[C@@H](O)c1ccnc2ccc(OC)cc12` (stereo partly drawn)?
Tgondii IFNg: -78*!

How did Nc1cncc(-c2cccc3c2CCNC3)c1 do in these assays?
Tgondii IFNg: 5

Results for CN1C2CCC1CC(OC(=O)CCN1CCOCC1)C2 (stereo not drawn) ?
Tgondii IFNg: -2

Results for O=C(NCc1ccccc1Cl)c1c(O)c2cccnc2n(Cc2ccccc2)c1=O ?
Tgondii IFNg: -108*

What do the screens show for `Cc1cccnc1CN1CC[C@@H]2OCCN(S(=O)(=O)C3CC3)[C@@H]2C1`?
Tgondii IFNg: -9

Results for CCCN[C@@H]1CCc2c(OC)cccc2[C@@H]1C ?
Tgondii IFNg: 2&-1

What do the screens show for `Cc1nc(CN2CCC3(C2)CN(C(=O)c2cccnc2)C3)cs1`?
Tgondii IFNg: 23

What do the screens show for `COc1ncccc1CN1CC[C@@H]2OCC[C@]2(C(=O)N(C)C)C1`?
Tgondii IFNg: 0

Results for Cc1ccc(F)c(NC(=O)c2c(O)c3cccnc3n(Cc3ccccc3)c2=O)c1 ?
Tgondii IFNg: 71

How did CN(Cc1cccnc1)C1CCC[C@@H]2CN(CC3CC3)C[C@@H]12 (stereo partly drawn) do in these assays?
Tgondii IFNg: -45

Results for c1nc(N2CCOCC2)nc2c1COCC21CCN(CC2CC2)C1 (stereo not drawn) ?
Tgondii IFNg: -7

Results for Cn1cc(CN2CC3(CCN(Cc4cccnc4)C3)C2)cn1 ?
Tgondii IFNg: -2

Reprinted at random: 2 records from the list.
How did CN(Cc1cccnc1)C1CCC[C@@H]2CN(CC3CC3)C[C@@H]12 (stereo partly drawn) do in these assays?
Tgondii IFNg: -45

Results for CN(C)CCN1C[C@H](OCc2ccccn2)[C@@H]2COC[C@@H]21 ?
Tgondii IFNg: -40

(next part)
How did CCCC1CN2CCC3=C(CCC3)C2(C)C1 (stereo not drawn) do in these assays?
Tgondii IFNg: -2

How did O=c1cccc2n1C[C@@H]1C[C@H]2CN(Cc2cn[nH]c2-c2ccc(F)cc2)C1 do in these assays?
Tgondii IFNg: 2

What do the screens show for `Cc1cc(C)cc(CN2CC3CNC(C3)C2)c1` (stereo not drawn)?
Tgondii IFNg: 26

How did COc1ccc(CCNC(=O)c2cc3cccnc3n(Cc3ccccc3F)c2=O)cc1OC do in these assays?
Tgondii IFNg: 38

What do the screens show for `Cc1cc(C2C[C@H]3CC[C@@H](C2)N3Cc2cc3n(n2)CCCNC3)ccc1F` (stereo partly drawn)?
Tgondii IFNg: inconclusive

What do the screens show for `CN(C)C(=O)N1CCC2(C1)CN(c1cccnc1)C(=O)CN2C` (stereo not drawn)?
Tgondii IFNg: -1

Results for Cc1ccc(Cl)cc1NC(=O)c1cc2cccnc2n(Cc2ccc(F)cc2)c1=O ?
Tgondii IFNg: 98

What do the screens show for `c1cncc(OC2COC3(CCN(Cc4cnc[nH]4)C3)C2)c1` (stereo not drawn)?
Tgondii IFNg: 6

What do the screens show for `CC(C)n1[nH]c(=O)c2c1NC(=O)CSC2c1ccccc1` (stereo not drawn)?
Tgondii IFNg: 3

How did O=C(Nc1ccc(Cl)cc1)c1cc2cccnc2n(Cc2ccccc2)c1=O do in these assays?
Tgondii IFNg: 141

Results for CN(C)c1ccc(-c2nccn2CCc2cnc[nH]2)cn1 ?
Tgondii IFNg: 3

How did CN(C)[C@@H]1CCN(C(=O)Cc2ccsc2)[C@H]1Cc1cnn(C)c1 do in these assays?
Tgondii IFNg: -1

What do the screens show for `C/C(=C\c1ccco1)CN1CCC2(CCNCC2)C1`?
Tgondii IFNg: 9

What do the screens show for `CN1CCN(S(=O)(=O)c2cccc(F)c2)Cc2cccnc21`?
Tgondii IFNg: 9

How did CCCN1CCCC2Cc3[nH]ncc3CC21 (stereo not drawn) do in these assays?
Tgondii IFNg: 12

Results for O=C(Cc1ccncc1)N1CCCCN2[C@@H](CO)[C@H](c3ccc(C#Cc4ccccc4F)cc3)[C@@H]2C1 ?
Tgondii IFNg: -45

What do the screens show for `CC(C)c1cccc(C(C)C)c1O`?
Tgondii IFNg: 2&-24

Results for O=C(Nc1ccccc1C(F)(F)F)c1cc2cccnc2n(Cc2ccccc2F)c1=O ?
Tgondii IFNg: -24

Results for O=C(Nc1ccccc1)c1cc2cccnc2n(Cc2ccccc2F)c1=O ?
Tgondii IFNg: 81

Results for C1CCN2C(C1)N1CCCCC1N1CCCCC21 (stereo not drawn) ?
Tgondii IFNg: -19

By substructure: those above with a CF3 group
How did Cc1nnc2ccc(-c3cccc(C(F)(F)F)c3)nn12 do in these assays?
Tgondii IFNg: -80*

How did O=C(Nc1ccccc1C(F)(F)F)c1cc2cccnc2n(Cc2ccc(Cl)cc2)c1=O do in these assays?
Tgondii IFNg: 38

Results for O=C(Nc1ccccc1C(F)(F)F)c1cc2cccnc2n(Cc2ccccc2F)c1=O ?
Tgondii IFNg: -24

A portion of the library (hit frequency here may not be typical).
